Screening data deposited in PubChem by ICCB-Longwood Screening Facility, Harvard Medical School.
GIV-Gai inh = blocks GIV peptide binding to rat Galpha-i3; P08753; Galpha-i3/FITC-GIV peptide fluorescence polarization, 90 min; stronger effect = lower value; scaled: aluminum fluoride 0%, vehicle 100%; percent of control (FP), % (concentration not given with the values); hit rate 0.42% among 210,000;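 active = replicate mean at 85% of control or lower, very high polarization wells dropped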;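 note: wells of about 15 µL received 100 nL stock; the first replicate is given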
Target sequence (P08753 whole entry, looked up): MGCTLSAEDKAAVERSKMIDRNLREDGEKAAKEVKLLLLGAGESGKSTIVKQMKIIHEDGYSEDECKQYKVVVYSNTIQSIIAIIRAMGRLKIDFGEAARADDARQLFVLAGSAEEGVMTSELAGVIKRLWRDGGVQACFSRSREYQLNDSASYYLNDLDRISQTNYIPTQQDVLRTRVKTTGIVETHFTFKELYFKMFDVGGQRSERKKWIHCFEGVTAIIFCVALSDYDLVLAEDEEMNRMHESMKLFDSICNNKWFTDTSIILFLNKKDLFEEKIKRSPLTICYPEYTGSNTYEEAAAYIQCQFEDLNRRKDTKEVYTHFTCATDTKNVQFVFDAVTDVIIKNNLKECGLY
HCMV NEC inh = disrupts HCMV UL50-UL53 complex binding. HTRF UL50-UL53 interaction, normalized percent inhibition. inhibition, % (no concentration beside the values). hit rate 0.15% among 190,000;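 active = both replicates at 50% or more, plus weaker picks with an unusually low signal ratio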;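 note: stock transfer was 100 nL into about 20 µL; 0% = negative control wells and 100% = wells with untagged competitor protein; inactives centre near -12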
Sa growth 42C = inhibitors of Staphylococcus aureus growth at 42 °C; S. aureus RN4220 growth, OD600, 20 h; stronger effect = lower value; relative growth, % (test concentration not listed); hit rate 0.53% among 170,000; AID 720641;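 active = growth at 42 °C up to 50% and 20 or more points under that at 30 °C, or under 10% at both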;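 note: 300 nL library stock went into each well; scaled to the means of positive and negative controls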
Sa growth 42C second temp = recorded beside Sa growth 42C, whose call it bears; relative growth, %; measured here: growth at 30 °C;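 optical density after 20 h as mean of two plates; 100% = untreated growth and lower means inhibition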
* marks the source's active call; other numbers are inactive results; · = no result given; & = joins results of further samples.

SMILES | GIV-Gai inh | HCMV NEC inh | Sa growth 42C | Sa growth 42C second temp
O=C(CN1C(=O)COc2ccc(S(=O)(=O)N3CCCC3)cc21)N1CCN(c2ccccc2F)CC1 | 99 | -42 | 89 | 86
CCc1ccc2nc(Cl)sc2c1 | 102 | -30 | 93 | 87
CN(CCC#N)C(=O)c1cc2c(s1)-c1ccccc1OC2 | 98 | -61 | 113 | 83
Cc1ccc(C)c(Cn2c(C3CC(=O)N(c4ccccc4C)C3)nc3ccccc32)c1 (stereo not drawn) | 112 | -8 | 85 | 66
COc1ccc(-c2nc(CCNC(=O)c3ccc(OCC(C)C)cc3)cs2)cc1 | 98 | 10 | · | ·
CCOC(=O)C(C)N1C(=O)S/C(=C/c2ccc(-c3ccccc3C(=O)O)o2)C1=O (stereo not drawn) | 122 | · | 91 | 71
CC(=O)NC(C)c1cc(C(C)(C)C)c(O)c(C(C)(C)C)c1 (stereo not drawn) | · | -25 | 96 | 94
CCC(C(=O)Nc1ccc(C(=O)N(C)C)cc1)c1ccccc1 (stereo not drawn) | · | 11 | 98 | 100
O=C(/C=C/c1ccc(Br)o1)NCCCN1CCOCC1 | · | -7 | 86 | 99
COc1cc(OC)cc(C(=O)NCC(=O)NCc2ccccn2)c1 | · | -23 | 78 | 87
CC1=C(C(=O)Nc2ccc(Cl)cc2)C(c2ccccc2)n2ncc(C(=O)Nc3ccccc3)c2N1 (stereo not drawn) | 106 | 5 | 98 | 89
Cc1ccc2[nH]c(=O)c(-c3noc(CCC(=O)Nc4nc(C)cs4)n3)cc2c1 | 107 | -52 | · | ·
C=Cc1ccc(Cn2nc(-c3ccc(OC)cc3)c3c(C)onc3c2=O)cc1 | 108 | -41 | · | ·
Cc1c2c(=O)n(-c3nc4ccccc4s3)[nH]c2cc(=O)n1Cc1ccc(C(=O)O)cc1 | 101 | -75 | · | ·
CC(C)Oc1ccc(C(=O)N(Cc2ccco2)c2ccccn2)cc1 | 104 | -6 | 114 | 86
N#Cc1c(N)nc(Sc2ccc(Cl)cc2)c(C#N)c1-c1ccco1 | 134 | 9 | 106 | 90
CN(C)CCNCc1ccc(-c2ccc(Br)cc2)o1 | 108 | -34 | · | ·
FC(F)(F)c1ccc(-c2csc(-c3ccc(-c4csnn4)cc3)n2)cc1 | 107 | -8 | 103 | 95
COC(=O)c1sc2ncccc2c1-n1c(C)ccc1C | 102 | -35 | 86 | 79
N#Cc1nc(/C=C/c2ccc(F)cc2)oc1NCc1ccc(F)cc1 | 103 | -34 | 92 | 86
N#Cc1cccc(NC(=O)c2cc3c(s2)-c2ccccc2OC3)c1 | 103 | 0 | 107 | 96
Cc1ccc(S(=O)(=O)NCC(O)Cn2c3ccccc3c3ccccc32)cc1 (stereo not drawn) | 100 | · | 96 | 92
CCCN(Cc1nnc(-c2ccccc2Cl)o1)C(=O)c1cccc(S(=O)(=O)N(C)C)c1 | · | -9 | 100 | 96
CCCn1c(CSCc2ccccc2F)nc2cc(S(=O)(=O)N3CCOCC3)ccc21 | · | 0 | 113 | 97
O=C(c1ccco1)N1CCN(c2nc3c(F)cc(F)cc3s2)CC1 | 95 | · | 88 | 94
(next part)
SMILES | GIV-Gai inh | HCMV NEC inh | Sa growth 42C | Sa growth 42C second temp
CCOC(=O)C1CCN(C(=O)CN(c2cc(Cl)ccc2OC)S(C)(=O)=O)CC1 | 101 | -27 | 96 | 90
NC(=O)CN1C(=O)C(O)(CC(=O)/C=C\c2ccccc2)c2ccccc21 (stereo not drawn) | 100 | -2 | 56 | 74
Cn1c(=O)[nH]c(=O)c2[nH]c(Cc3ccccc3)nc21 | 100 | -7 | 104 | 89
CC1(C)C(=O)C2(C(=O)O)CCC1C2 (stereo not drawn) | 101 | -14 | 90 | 89
O=C(c1cnc2sccn2c1=O)N1CCN(c2cccc(C(F)(F)F)c2)CC1 | 106 | -13 | · | ·
COc1cccc2c1NC(C)(C)C=C2C | 98 | -29 | 86 | 86
Cc1cc(=O)[nH]c2c1c(C)nn2C(C)(C)C | 103 | -4 | 106 | 95
COc1ccc(CNC(=O)c2cnc3cc(C)ccn3c2=O)cc1 | 105 | -27 | 105 | 79
Cc1ccc(-c2cc3nccc(-c4cc(C)ccc4O)n3n2)cc1 | 97 | -34 | · | ·
CC(C)CN(CC(C)C)C(=O)COc1ccc(C(C)(C)C)cc1 | · | -22 | 94 | 88
CC1(C)OC(=O)N(CCCC(=O)O)C1(C)O (stereo not drawn) | · | -8 | 94 | 84
O=c1cc(CSc2cccc3cccnc23)c2ccc(O)cc2o1 | 211 | · | 94 | 68
CC(C)(C)c1ccc(C(=O)Nc2ccc(NC(=O)c3ccccc3F)cc2)cc1 | 102 | · | 75 | 99
Cc1ccc(Cl)cc1N1CCN(C(=O)CCN2C(=S)NC(C)(C)CC2C)CC1 (stereo not drawn) | 103 | 5 | 66 | 16
CCOC(=O)c1ccc(NC(=NCc2ccncc2)NC(=O)c2cc(OC)cc(OC)c2)cc1 | 112 | 0 | · | ·
Cc1ccc(Cn2c(SCC(=O)Nc3oncc3-c3ccc(F)cc3)nc3ccccc3c2=O)cc1 | 98 | -15 | · | ·
CCN1CCN(Cc2ccc(NC(=O)c3cn(-c4cccc(OC)c4)c(=O)c4ccccc34)cc2)CC1 | 102 | -18 | 76 | 79
CC(C)CCNC(=O)C(Cc1ccccc1)NS(=O)(=O)c1ccc2c(c1)c(=O)n(C)c(=O)n2C (stereo not drawn) | 106 | -9 | 108 | 89
COc1cc(/C=C(/Sc2nnc(-c3ccc(F)cc3)o2)C(=O)O)ccc1OC(F)F | · | -11 | 86 | 96
COC(=O)c1cccc(S(=O)(=O)N2CCCCC2)c1 | 101 | -17 | 113 | 80
Cc1ccc(NC(=O)CSc2c3c(nc4ccc(Cl)cc24)CCCC3)cc1 | 106 | 2 | · | ·
Cc1cc(-c2nc(-c3ccc(C(F)(F)F)cc3)no2)no1 | 106 | -24 | 110 | 102
Cc1ccc(N(Cc2nc3nc(C)cc(C)n3n2)C(=O)c2ccc(Cl)cc2)cc1 | 102 | -29 | · | ·
O=C(CCC(=O)n1ncc2ccccc21)N1CCCCC1 | 102 | · | 92 | 93
CCOC(=O)CN1C(=O)C(Cc2ccc(O)cc2)N(CC(=O)OCC)C1=O (stereo not drawn) | 101 | -19 | · | ·

Whole records as entered above:
Listed for Cc1ccc(-c2cc3nccc(-c4cc(C)ccc4O)n3n2)cc1 → GIV-Gai inh: 97; HCMV NEC inh: -34; Sa growth 42C: ·; Sa growth 42C second temp: ·
Listed for CC1(C)OC(=O)N(CCCC(=O)O)C1(C)O (stereo not drawn) → GIV-Gai inh: ·; HCMV NEC inh: -8; Sa growth 42C: 94; Sa growth 42C second temp: 84
Listed for CCN1CCN(Cc2ccc(NC(=O)c3cn(-c4cccc(OC)c4)c(=O)c4ccccc34)cc2)CC1 → GIV-Gai inh: 102; HCMV NEC inh: -18; Sa growth 42C: 76; Sa growth 42C second temp: 79

Next structures
SMILES | GIV-Gai inh | HCMV NEC inh | Sa growth 42C | Sa growth 42C second temp
CCN(CC)CCCNC(=O)c1nn2c(C(F)(F)F)cc(-c3cccs3)nc2c1Br | 107 | -25 | · | ·
Cc1ccc2c(=O)cc(C(=O)N(Cc3ccccc3Cl)C3CCS(=O)(=O)C3)oc2c1 (stereo not drawn) | 106 | 10 | 99 | 91
COc1cccc(CNC(=O)Cn2c(=O)ccc3cc(S(=O)(=O)N4CCCC4)ccc32)c1 | 97 | · | 102 | 78
Cc1ccc(C(=O)COC(=O)C2C3CC4OC(=O)C2C4C3)cc1 (stereo not drawn) | 108 | · | 95 | 78
O=S(=O)(NCc1ccccc1)c1ccc(F)cc1 | · | -25 | 110 | 93
COc1ccc(Nc2cc(C(=O)NCCCN(C)Cc3ccccc3)c3ccccc3n2)c(OC)c1 | 102 | · | 97 | 74
COc1ccc(CCn2c(=O)c3cccnc3n(Cc3ccc(C#N)cc3)c2=O)cc1OC | 104 | -1 | 96 | 83
CCOC(=O)C(C(=O)Nc1ccccc1)C1CCCCC1 (stereo not drawn) | 105 | 2 | 98 | 117
Cc1ccc(-c2nnc(SCC(=O)N3CCCc4ccccc43)o2)cc1 | 102 | -9 | 103 | 83
CCN(c1ccc2oc3ccccc3c2c1)S(=O)(=O)c1ccc(C#N)cc1 | · | -13 | 45* | 87*
O=C(CC1(O)C(=O)c2ccccc2C1=O)c1ccccc1 | · | -42 | 111 | 89
CCN(CC)c1ccc(NC(=O)COc2ccc(C)cc2C)c(C)c1 | 104 | -9 | 131 | 99
COC(=O)c1cnc(N2CCN(c3ccccc3OC)CC2)c2ccccc12 | 100&99 | · | 112 | 92
CCC12CN3CC(CC)(CN(C1)C3c1c(C)[nH]c3ccccc13)C2=O (stereo not drawn) | · | -8 | 102 | 87
CCC(=O)N1CCc2cc(Br)cc(S(=O)(=O)CCC(=O)N3CCc4ccccc43)c21 | 105 | -5 | 85 | 86
O=C1C2C3C=CC(C3)C2C(=O)N1Cc1cccnc1 (stereo not drawn) | · | -9 | 119 | 88
COC(=O)C1=C(C)N(C2CCCCC2)C(=O)/C1=C\c1ccc(N(C)C)cc1 | 104 | -35 | 95 | 90
CCOc1ccc(NC(=O)CN(c2ccc(C)cc2)S(=O)(=O)c2cccs2)cc1 | 101 | -19 | 98 | 86
O=C(O)CSCc1ccc(F)cc1 | 101 | · | 103 | 91
CC(C)Sc1ncc(Cl)c(C(=O)N(Cc2ccc(N(C)C)cc2)C2CCS(=O)(=O)C2)n1 (stereo not drawn) | 96 | -35 | 94 | 88
O=C(CSc1nnc(CNc2ccc(F)cc2)o1)N1c2ccccc2Sc2ccccc21 | 104 | 4 | 101 | 110
COc1ccc(NC(=O)C2=C(C)Nc3nc(SCc4ccc(C)cc4C)nn3C2c2cccc(OC)c2OC)cc1 (stereo not drawn) | 101 | · | 114 | 86
Cc1c(Br)sc2sc(-c3ccnc(SCC(=O)NC(C)C)n3)c(C)c12 | 99 | -48 | 104 | 85
Cc1nc2sc(C(=O)c3ccc(Br)cc3)c(N)c2c(C)c1C | 112 | 2 | · | ·
COc1ccc(-c2noc(CN(C(=O)CN3C(=O)c4ccccc4C3=O)C(C)C)n2)cc1 | 104 | · | 82 | 88
(next part)
SMILES | GIV-Gai inh | HCMV NEC inh | Sa growth 42C | Sa growth 42C second temp
O=c1[nH]cc(F)c(=O)[nH]1 | 98&102 | -8&-12&-8&-12&-27 | -0.5* | -0.2*
CC(C)(C)NS(=O)(=O)c1sc(Br)cc1Br | 102 | 5 | 91 | 100
On1c(-c2cccc(C(F)(F)F)c2)nc2ncccc21 | 106 | -5 | · | ·
CCOC(=O)N1CCN(C(c2ccccn2)c2cc(Cl)c3cccnc3c2O)CC1 (stereo not drawn) | · | -30 | 107 | 80
O=C(Nc1c(C(=O)c2ccccc2)oc2ccccc12)c1ccc(F)cc1 | 111 | -28 | 90 | 84
O=C(c1cnn(-c2ccc(F)cc2)c1-n1cccc1)N1CCN(c2ccc(F)cc2)CC1 | 105 | · | 113 | 83
CC1Cc2ccccc2N1C(=O)CSc1nccc(=O)[nH]1 (stereo not drawn) | 100 | -42 | 94 | 95
COc1ccc(C2=C(Nc3ccc(C)cc3C)c3ccccc3C2=O)cc1 | 104 | -17 | 122 | 84
O=C(NCCN1CCN(c2cccc(Cl)c2)CC1)Nc1ccccc1 | 105 | 11 | 106 | 67
COc1ccc2nc(NCc3ccccc3)[nH]c2c1 | 105 | · | 93 | 53
O=C(Cn1c(=O)c2ccccc2n(CC(=O)Nc2ccc(Cl)cc2)c1=O)NCCc1ccccc1 | 104 | -53 | 118 | 92
Cc1ccc(CCNC(=O)CN2CCN(Cc3ccc(Cl)cc3)C2=O)cc1 | 105 | -9 | 129 | 80
CCOC(=O)c1cc(-c2ccc(C=C3C(=O)N(C)C(=O)N(C)C3=O)o2)ccc1Cl | 103 | -19 | · | ·
CCc1ccccc1NC(=O)CN(c1cc(C(F)(F)F)ccc1Cl)S(=O)(=O)c1ccccc1 | 92 | -20 | 93 | 92
CC(C)C(C(=O)OC1CSCC1NC(=O)c1ccccc1)N1C(=O)c2ccccc2C1=O (stereo not drawn) | · | -13 | 81 | 82
O=C1CC(c2ccc(S(=O)(=O)N3CCOC(COc4ccccc4)C3)cc2)CN1 (stereo not drawn) | 102 | 3 | 91 | 98
Cc1ccc2onc(CNC(=O)N3CCN(c4cccc(C(F)(F)F)c4)CC3)c2c1 | 101 | · | 84 | 72
COc1ccc(Nc2ncnc3sc4c(c23)CCCC4)cc1 | 95 | · | 99 | 91
Cc1ccc(NC(=O)c2oc3ccc(S(=O)(=O)N4CCCCCC4)cc3c2C)cc1Cl | 101 | · | 118 | 93
CC1CC(N(C(=O)C(C)C)c2ccccc2)c2ccccc2N1 (stereo not drawn) | · | -16 | 77 | 87
Cc1cc(Nc2cccc(C(F)(F)F)c2)nc2ccc(NC(=O)Cc3cccs3)cc12 | 98 | · | 100 | 95

Six entries out of the list above, sorted by the value under Sa growth 42C, smallest number first:
SMILES | Sa growth 42C
Cc1ccc(Cl)cc1N1CCN(C(=O)CCN2C(=S)NC(C)(C)CC2C)CC1 (stereo not drawn) | 66
Cc1ccc(C)c(Cn2c(C3CC(=O)N(c4ccccc4C)C3)nc3ccccc32)c1 (stereo not drawn) | 85
COc1cccc2c1NC(C)(C)C=C2C | 86
O=C(CN1C(=O)COc2ccc(S(=O)(=O)N3CCCC3)cc21)N1CCN(c2ccccc2F)CC1 | 89
CCc1ccccc1NC(=O)CN(c1cc(C(F)(F)F)ccc1Cl)S(=O)(=O)c1ccccc1 | 93
O=C(O)CSCc1ccc(F)cc1 | 103
